# PTK2B oligo ant: antagonists of human Pyk2 oligomerization. Q14289. Q293 cells, Pyk2 FERM NanoBiT luminescence; stronger effect = lower value. z-score (the deposit names both 25 µM and 10 µM). 99,000 compounds, 0.83% hits. AID 1347419;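 active = Z-score of -3 or lower, scaled per plate to the spread of control and sample wells; inactive = z-score above -3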;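 note: negative z-score means lost luminescence so less FERM oligomerization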
# hDAT+cocaine: human DAT dopamine uptake with cocaine, either direction. Q01959. LLC-PK1 hDAT cells, [14C]-dopamine uptake with cocaine IC80; actives deviate in either direction. B-score at 10 µM. 110,000 compounds, 1.3% hits. AID 449768;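 active = Z score or B-score, a plate-position-corrected score, falls beyond the plate's 99.7% confidence bounds, in either direction; inactive = both scores lie inside the 99.7% bounds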;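 note: scored against the spread of the other compound wells on the same plate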
# PostGolgi ctrl: inhibits growth of the yeast control strain; efflux-deficient yeast background strain, growth absorbance A615, 16 h; inhibition, % at 10 µM; 98,000 compounds, 5% hits; AID 738
# PTPN22 inh 2: blocks human PTPN22 phosphatase activity. recombinant LYP catalytic domain, DiFMUP fluorescence. inhibition, % at 2 µM. 96,000 compounds, 0.21% hits;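 active = inhibition at 2 µM at or above a set limit, the screen mean plus 3 SD, cut at about 24% in these data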;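 note: 0% = DMSO with enzyme and 100% = enzyme fully blocked by orthovanadate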
# Target sequence (Q9Y2R2 whole entry, looked up, the tested form may be a part): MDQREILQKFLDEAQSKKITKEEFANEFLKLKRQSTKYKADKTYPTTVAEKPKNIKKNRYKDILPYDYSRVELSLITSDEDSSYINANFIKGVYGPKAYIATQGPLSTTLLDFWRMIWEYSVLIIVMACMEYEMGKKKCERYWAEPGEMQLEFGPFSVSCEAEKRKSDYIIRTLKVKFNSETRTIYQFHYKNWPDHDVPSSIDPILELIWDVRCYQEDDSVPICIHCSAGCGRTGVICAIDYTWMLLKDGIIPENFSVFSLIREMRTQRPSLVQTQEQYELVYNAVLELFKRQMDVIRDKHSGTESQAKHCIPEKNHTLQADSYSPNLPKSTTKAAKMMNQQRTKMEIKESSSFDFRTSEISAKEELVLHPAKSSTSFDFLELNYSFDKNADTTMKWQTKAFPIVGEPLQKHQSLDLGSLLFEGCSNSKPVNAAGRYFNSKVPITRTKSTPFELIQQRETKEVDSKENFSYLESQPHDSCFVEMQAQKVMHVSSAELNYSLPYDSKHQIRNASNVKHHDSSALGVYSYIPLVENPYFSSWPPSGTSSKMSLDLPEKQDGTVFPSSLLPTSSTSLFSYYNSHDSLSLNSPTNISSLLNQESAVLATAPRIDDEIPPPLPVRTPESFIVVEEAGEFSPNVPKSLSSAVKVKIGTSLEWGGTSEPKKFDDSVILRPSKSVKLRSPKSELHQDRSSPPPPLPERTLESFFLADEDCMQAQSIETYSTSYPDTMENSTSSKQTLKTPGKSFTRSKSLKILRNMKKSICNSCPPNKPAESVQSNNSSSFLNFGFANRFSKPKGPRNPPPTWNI
# PostGolgi yeast: growth inhibition of a yeast mutant, post-Golgi transport screen; inhibition, % at 10 µM; 98,000 compounds, 0.9% hits; post-Golgi transport phenotypic cell assay;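 note: yeast cells grown in 1536-well plates; yeast grown about 18 h at 30C before absorbance read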
# E coli WT exp: growth inhibitors of E. coli BW25113 wild type; growth inhibition, % at 100 µM; 98,000 compounds, 0.15% hits; AID 710; OD600 absorbance;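 active = growth inhibition above about 50% at one test dose, limit read from the data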;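 note: growth measured after 20 h incubation at 37 °C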
# LYP act: activators of human LYP (PTPN22) phosphatase. Q9Y2R2. recombinant LYP, DiFMUP fluorescence; 0 = plate median, 100 = signal doubled. activation, % at 2 µM. AID 697. 96,000 compounds, 0.11% hits;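 active = activation at 2 µM above a set limit, the mean plus 5 SD, cut at about 37% in these data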
# Numbers without * were called inactive; i = inactive; · = not tested or not shown; & = joins results of further samples. Cut-off read from the data, not from the text of the source, unless noted: active = inhibition above about 30%; inactive = the rest.
SMILES	PTK2B oligo ant	hDAT+cocaine	PostGolgi ctrl	PTPN22 inh 2	PostGolgi yeast	E coli WT exp	LYP act
O=S(=O)(NCCSCc1c(Cl)cccc1Cl)c1ccc2c(c1)OCCO2	-4.34*	0.177	24.3	3.9	-6.9	-20.0	-1.6
Cc1cc(C)n(CC(=O)N/N=C/c2ccc(C)o2)n1	-0.27	-0.663	1.3	-3.4	0.8	4.0	6.1
COc1ccc(-c2cc(-c3c(O)c(OC)c4occc4c3OC)[nH]n2)cc1OC	-2.97	-0.901	14.7	8.5	2.0	6.0	-9.4
FC(F)(F)c1cc(Oc2ccc(Cl)cc2)nc(-c2ccccn2)n1	1.38	-0.873	3.6	4.7	3.9	-6.0	-2.1
CC(C)CNC(=S)NC1CC2CCC(C1)N2Cc1ccccc1 (stereo not given)	0.33	-0.0611	-4.3	14.3	-1.2	4.0	-10.9
O=S(=O)(Nc1ccc(Cc2ccncc2)cc1)c1ccc(Cl)c(Cl)c1	-3.03*	0.635	96.1*	5.7	106.8*	4.0	-1.8
CN1CCN(CC(O)c2ccccc2)CC1 (stereo not given)	·	-1.37	20.4	1.2	-8.5	-14.0	1.5
C/C(=N/OC(=O)c1ccc(F)cc1)c1ccc(C)cc1	0.4	-0.938	7.2	5.2	-4.0	3.0	-2.8
O=C(NCC1CCCO1)C1CC(=O)N(C2CCCCCC2)C1 (stereo not given)	0.55	-0.069	26.3	1.1	17.8	-3.0	2.3
CC(=O)N1N=C(c2ccc(C)o2)CC1c1ccc(Br)cc1 (stereo not given)	0.97	-0.00334	12.7	3.9	-5.7	-1.0	-0.4
Cc1ccc(C(=O)Nc2ccccc2-c2ccccc2)cc1S(=O)(=O)Nc1cccc(C)c1C	-0.99	-0.353	11.4	5.8	-2.4	-19.0	-2.4
Cc1cc(O)c(/C=N/Nc2ccc(Cl)cc2)c(=O)o1	-0.37	-0.516	8.4	-7.2	66.1*	95.0*	9.8
O=C(NCc1ccccc1)c1ccc(S(=O)(=O)N2CCCc3ccccc32)cc1	-1.6	0.297	15.9	-5.3	29.2	-17.0	1.8
COc1ccc(OCCn2cc(/C(N)=N/O)c3ccccc32)cc1	-0.42	1.38	1.4	3.6	-2.8	10.0	-6.3
N/C(=N\OC(=O)c1cccc(Br)c1)c1ccc(Br)cc1	-0.57	-0.793	13.3	0.0	0.3	6.0	2.2
O=C(NCCCN1CCCCCC1)C1CC(=O)N(C2CCCC2)C1 (stereo not given)	0.71	-1.64	39.6*	-3.4	-5.4	4.0	1.8
COc1ccc(N(C)S(=O)(=O)c2c(C)[nH]c(=O)[nH]c2=O)cc1	0.37	-1.23	10.7	-1.9	-0.2	3.0	0.9
CC(=O)Nc1ccc(S(=O)(=O)NCC2CCC(C(=O)NCCC(C)C)CC2)cc1 (stereo not given)	0.12	0.279	-0.8	-3.9	4.8	-3.0	2.9
CC(C)OC(=O)C(CC(=O)O)N1CCOCC1 (stereo not given)	-0.11	-0.325	6.2	3.9	1.1	2.0	-1.1
CC1CCC(=C(C#N)C(=O)Nc2cccc(Cl)c2)CC1 (stereo not given)	-1.47	-0.569	27.9	6.7	10.9	11.0	-9.3
CCc1ccc(NC(=O)CC2C(=O)Nc3c2c(=O)n(C)c(=O)n3C)cc1 (stereo not given)	0.57	-0.0512	18.6	-6.4	18.6	-17.0	3.4
Nc1c(C(=O)NCc2ccco2)nnn1-c1ccccc1	0.32	-0.235	11.3	-1.1	1.9	7.0	1.2
COC(=O)c1ccc(NC(=O)COc2ccc(C3C(C#N)=C(N)Oc4c3ccc3ccccc43)cc2OC)cc1 (stereo not given)	-0.41	-0.392	-6.1	1.5	0.5	-5.0	2.5
Cc1ccc(/C=C/C(=O)Nc2cc(C)on2)cc1	-0.48	0.151	2.4	1.2	-3.0	-6.0	0.9
CCOc1cc(CNCc2cccs2)cc(Br)c1OC	0.88	-0.329	25.9	-3.1	5.3	19.0	5.6
CCOCC(=O)Nc1cc(C(F)(F)F)ccc1Oc1cccc(Br)c1	-0.86	-0.203	16.8	3.0	3.2	6.0	2.3
CCn1c(=O)n(CC)c2cc([N+](=O)[O-])ccc21	0.4	-0.567	0.3	1.1	-5.0	8.0	2.9
Cc1ccc(S(=O)(=O)c2c(C)cc(-c3ccccc3)[nH]c2=O)cc1	0.54	-0.293	-7.8	-8.9	4.0	-8.0	12.4
Cc1ccc(NC(=O)Cn2nc(C)c3ccccc3c2=O)cc1F	-1.38	-0.629	6.3	·	0.6	-6.0	·
O=C(Cc1cc(=O)[nH][nH]1)N/N=C/C(Cl)=C/c1ccccc1	-0.27&0.39	0.566&-0.256	13.4&-6.1	-22.1&2.7	1.7&-0.5	-3.0&8.0	19.6&0.7
COC(=O)c1cc2n(n1)CCN(Cc1ccc(OC)cc1)C2=O	1.43	-0.00562	-5.5	-7.8	-6.5	1.0	5.1
CC1(C)N=C(SCC(=O)Nc2ccccc2)C(c2ccc(Cl)cc2)=N1	1.82	2.24	9.1	5.2	-3.0	-3.0	-4.3
N#CCCn1ncc2ccccc21	0.06	-1.04	-11.7	-47.7	-2.6	6.0	44.2*
CCCc1nnc(SCC(=O)N2CCCCC2C)n1CC1CCCO1 (stereo not given)	0.14	0.18	3.2	1.9	-1.1	1.0	0.6
O=C(Nc1cccc(-c2nc3ccccc3s2)c1)c1ccc2c(c1)OCO2	-1.07	0.699	0.7	-2.0	-4.8	-14.0	4.5
O=C(OC1CCCCC1)c1ccc2c(c1)C1C=CCC1C(C(=O)O)N2 (stereo not given)	·	·	8.0	·	20.0	-25.0	·
Cc1ccc(C(=O)c2oc3nc(C)cc(C)c3c2N)cc1	-0.06	0.855	2.2	4.7	-13.9	-2.0	-1.3
CC1=C(C#N)C(NC(=O)C(C)(C)C)(C(F)(F)F)C(=O)N1 (stereo not given)	0.86	0.554	24.2	3.6	12.0	-4.0	-1.0
Nc1ccccc1Nc1ccccc1	-2.05	2.51*	11.9	14.9	7.7	15.0	-11.2
Cc1cc(-c2sccc2C)nc(-n2cccc2)n1	0.01	-0.0773	8.4	7.8	-2.1	4.0	-4.0

# Pulled one by one from above:
SMILES	PTK2B oligo ant	hDAT+cocaine	PostGolgi ctrl	PTPN22 inh 2	PostGolgi yeast	E coli WT exp	LYP act
COC(=O)c1cc2n(n1)CCN(Cc1ccc(OC)cc1)C2=O	1.43	-0.00562	-5.5	-7.8	-6.5	1.0	5.1
O=C(Nc1cccc(-c2nc3ccccc3s2)c1)c1ccc2c(c1)OCO2	-1.07	0.699	0.7	-2.0	-4.8	-14.0	4.5
O=C(OC1CCCCC1)c1ccc2c(c1)C1C=CCC1C(C(=O)O)N2 (stereo not given)	·	·	8.0	·	20.0	-25.0	·

# Next structures follow.
SMILES	PTK2B oligo ant	hDAT+cocaine	PostGolgi ctrl	PTPN22 inh 2	PostGolgi yeast	E coli WT exp	LYP act
CCOc1cc(CNc2ccc3c(c2)OCCO3)cc(Br)c1OCC	-1.09	-1.05	11.6	8.3	·	2.0	-4.4
OCc1nnn(-c2cccc(C(F)(F)F)c2)c1CO	0.5	0.773	12.2	-5.9	0.0	3.0	3.5
CCCCCn1c(SCc2ccncc2)nc2cc(C(=O)NCc3ccco3)ccc2c1=O	0.1	2.62	43.4*	4.5	-2.2	-24.0	-6.8
Cc1cc(OC(=O)c2cc(F)c(F)cc2Cl)nc(C)n1	1.09	0.173	0.6	-18.6	-4.9	2.0	22.4
Cc1[nH]nc2c1C(c1ccccc1)C1=C(CC(C)(C)CC1=O)N2 (stereo not given)	-0.41	-0.212	22.1	i	-2.3	1.0	i
CN(C)/C=C(\C#N)C(=O)c1cccnc1Oc1ccc(F)cc1F	0.2	-0.607	2.7	-1.8	-2.3	5.0	3.4
CCC(C)C(NC(=O)OC(C)(C)C)C(=O)NCc1ccco1 (stereo not given)	-0.18	0.305	26.7	-0.8	-26.0	-5.0	0.0
Cc1c(CCOC(=O)C2C3CC4CC(C3)CC2C4)sc[n+]1CC(=O)c1ccc(Br)cc1 (stereo not given)	1.42	1.68	18.4	33.4*	-3.1	9.0	-31.7
O=C(/C=C/c1ccc(F)cc1)NCCC1=CCCCC1	-0.12	0.0827	11.5	4.7	-4.3	3.0	-4.7
CCOC(=O)Cn1nc(Cc2ccccc2)c2ccccc2c1=O	-0.62	-0.248	10.9	3.5	-4.2	3.0	-1.6
N=c1c2c(-c3ccccc3)c(-c3ccccc3)n(Cc3ccccc3)c2ncn1CCCO	-0.97	0.556	16.3	-3.2	20.3	13.0	3.1
CCCCn1ccnc1C(=O)c1ccc(S(=O)(=O)N(CCOC)CCOC)cc1	0.62	0.297	6.9	-8.3	-12.8	5.0	7.6
CC12CCC(C(=O)N(NC(=O)c3ccc(O)cc3)C1=O)C2(C)C (stereo not given)	-0.23	-0.00283	7.0	6.5	-5.9	-1.0	-4.5
O=C(Oc1cc2oc(=O)cc(-c3ccccc3)c2cc1Cl)C1CCCCC1	-0.12	-0.238	10.9	7.6	1.4	-19.0	-3.8
S=C1NCCOCCOCCOCCN1	1.68	0.235	4.6	7.4	1.6	-4.0	-5.0
CC1CCc2c(C(=O)NCCN3CCOCC3)csc2C1 (stereo not given)	-0.12	-0.0287	1.2	-4.3	-11.6	6.0	3.1
CCCOc1ccc2oc(=O)c3c(c2c1)CCCN3C(=O)CN1CCCC(C(=O)OCC)C1 (stereo not given)	-0.31	0.488	4.1	-4.8	4.6	-7.0	1.6
Cc1ccc(S(=O)(=O)Nc2ccccc2-c2ccccc2NS(=O)(=O)c2ccc(C)cc2)cc1	-2	0.0987	16.7	16.0	-0.3	-12.0	-12.7
COc1cc(NC(=O)c2ccco2)c(C(=O)O)cc1OC	-0.01	0.316	-4.8	-2.1	0.5	5.0	6.5
CCC(Sc1nc2sc(C(=O)OC)c(C)c2c(=O)n1N)C(=O)N(CC)CC (stereo not given)	-0.29	0.00392	0.9	-7.0	4.7	-3.0	9.6

# Structures above marked active in PostGolgi ctrl.
Molecule,PTK2B oligo ant,hDAT+cocaine,PostGolgi ctrl,PTPN22 inh 2,LYP act
O=S(=O)(Nc1ccc(Cc2ccncc2)cc1)c1ccc(Cl)c(Cl)c1,-3.03*,0.635,96.1*,5.7,-1.8
O=C(NCCCN1CCCCCC1)C1CC(=O)N(C2CCCC2)C1 (stereo not given),0.71,-1.64,39.6*,-3.4,1.8
CCCCCn1c(SCc2ccncc2)nc2cc(C(=O)NCc3ccco3)ccc2c1=O,0.1,2.62,43.4*,4.5,-6.8

# Carrying on:
SMILES	PTK2B oligo ant	hDAT+cocaine	PostGolgi ctrl	PTPN22 inh 2	PostGolgi yeast	E coli WT exp	LYP act
CCN(CC(=O)NC1CCS(=O)(=O)C1)c1ccc(S(C)(=O)=O)cc1[N+](=O)[O-] (stereo not given)	0.71	0.323	-0.3	6.5	-18.5	2.0	-4.6
COc1ccc(/C(O)=C2/C(=O)C(=O)N(CC3CCCO3)C2c2ccc(OC)c(OC)c2)cc1 (stereo not given)	-0.31	0.0293	17.9	-1.4	-2.2	5.0	6.8
Cc1cc2nc(-c3ccc(SCc4ccc(C#N)cc4)nc3)[nH]c2cc1C	-1.61	-0.634	6.6	6.8	-0.2	-17.0	-4.1
CCCOc1ccc(N2CC(C(=O)NC(C)C)CC2=O)cc1 (stereo not given)	-0.35	0.274	-1.8	-4.4	4.7	-4.0	4.5
COc1ccc(C2CC(=O)c3cnc(NC(=O)c4cccc(OC)c4)nc3C2)cc1 (stereo not given)	0.07	-0.242	11.9	3.0	4.0	2.0	-3.4

# High-throughput results deposited in PubChem by several laboratories.

# Not all compounds are listed, so the mix of outcomes need not match the whole.
